# FPR binding: small-molecule ligands of human FPR – U937-FPR cells, fMLFK-FITC, flow cytometry, primary screen (AID 362). U937-FPR cells, fMLFK-FITC displacement, flow cytometry; hits give high values; test concentration not given here; most inactive calls were filed without a number and no value below 0 was filed. 4,300 tested, 1% active. inhibition, %;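 active = inhibition of labelled peptide binding to the formyl peptide receptor of at least 65%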;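 note: plate controls were buffer control wells for no effect and unlabeled fMLFF blocking peptide for full effect; higher means less cell fluorescence so more probe displaced; part of the set was picked by virtual screening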
# Starred values were filed as active, the others as inactive; i = inactive. Only part of the results is shown, so the mix of outcomes need not match the whole.
item	FPR binding	Structure
1	i	CC(C)CCn1c(CN2CCC(Cc3ccccc3)CC2)nc2c1c(=O)n(C)c(=O)n2C
2	i	CC(=O)c1cccc(N2C(=O)C3C4C=CC(C4)C3(C)C2=O)c1 (centres undefined)
3	i	CCCCCCSC1=C(C#N)C2(CCCC2)C(C#N)C(=O)N1 (centres undefined)
4	i	COc1cc2c(C(=O)NCCC(C)C)cn(CC(C)C)c(=O)c2cc1OC
5	3.4	CC1=C(C(=O)OC2CCCCC2)C(c2cccc([N+](=O)[O-])c2)C2=C(CC(c3ccccc3)CC2=O)N1 (centres undefined)
6	31.6	O=C(O)c1cccc(N2C(=O)C3C4CCC(C4)C3C2=O)c1 (centres undefined)
7	4.7	CCCCN(CC)Cc1c(O)ccc2c(=O)c(Oc3ccc(CC)cc3)c(C(F)(F)F)oc12
8	18.0	C=CCNc1ccc(N2C(=O)C3C4C=CC(C4)C3C2=O)cc1[N+](=O)[O-] (centres undefined)
9	i	COc1cc(C2NC(=O)NC(C)=C2C(=O)OCC(F)(F)F)cc(Br)c1O (centres undefined)
10	8.8	CCOc1cc(C2C(C(=O)OCCSCC)=C(C)NC3=C2C(=O)C(C(=O)OC)C(C)C3)cc(Br)c1O (centres undefined)
11	i	CC(C)Cn1cc(C(=O)N2CCN(c3cccc(Cl)c3)CC2)c2c3ccccc3n(C)c2c1=O
12	i	CC1(C)CC(=O)C2=C(C1)N(c1ncn[nH]1)C(N)=C(C#N)C2c1cccc(Cl)c1 (centres undefined)
13	28.2	O=c1c(Oc2ccccc2)c(C(F)(F)F)oc2c(O)c(O)ccc12
14	4.2	CCCOCCOC(=O)C1=C(C)NC2=C(C(=O)C(C(=O)OC)C(C)C2)C1c1ccc(OCCC)cc1 (centres undefined)
15	i	CCCCOc1ccc(C(C)NC(=O)C2CCC(CNS(=O)(=O)c3ccccc3)CC2)cc1 (centres undefined)
16	5.1	COc1cc2c(C(=O)NCC3COc4ccccc4O3)cn(CC(C)C)c(=O)c2cc1OC (centres undefined)
17	i	CC(=O)N1CCCc2cc(S(=O)(=O)N3CC=C(c4ccccc4)CC3)ccc21
18	i	COC(=O)C1C(=O)C2=C(CC1C)NC(C)=C(C(=O)OC(C)C)C2c1cccc([N+](=O)[O-])c1 (centres undefined)
19	33.4	COc1ccccc1-c1c(C(F)(F)F)oc2c(CN3CC(C)OC(C)C3)c(O)ccc2c1=O (centres undefined)
20	i	CCOC(=O)C1=C(C)N(CC(C)C)C(=O)C1
21	i	CCc1nnc(NC(=O)C(C(C)C)N2C(=O)c3ccccc3C2=O)s1 (centres undefined)
22	i	CCOC(=O)C1=C(C)NC2=C(C(=O)C(C(=O)OC)C(C)C2)C1c1ccc(F)cc1 (centres undefined)
23	19.5	O=C(O)C1CC=CCC1C(=O)Nc1ccc(Br)c2cccnc12 (centres undefined)
24	i	CC12CCC(C(=O)N3CCOCC3)(CC1=O)C2(C)C (centres undefined)
25	i	COc1cc(OC)c(C2C3=C(CC(C)(C)CC3=O)Nc3ncnn32)cc1OC (centres undefined)
26	0.3	CC1CCN(C(=O)C2CCC(CNS(=O)(=O)c3ccc(Br)s3)CC2)CC1 (centres undefined)
27	i	CCOC(=O)N1CCC(Nc2ccc(N3C(=O)C4C5C=CC(C5)C4C3=O)cc2[N+](=O)[O-])CC1 (centres undefined)
28	i	CC(C)C1=CC23CCC4C(C)(C(=O)O)CCCC4(C)C2CC1C1C(=O)N(c2ccccc2O)C(=O)C13 (centres undefined)
29	i	O=C1c2cccc3cccc(c23)C(=O)N1CC1CCN(C(=O)C23CC4CC(CC(C4)C2)C3)CC1
30	3.6	COc1cc([N+](=O)[O-])ccc1N=CC1=C(O)CC(C)(C)CC1=O
31	15.7	CCOC(=O)c1c(-c2ccco2)csc1NC(=O)C1C2CCC(C2)C1C(=O)O (centres undefined)
32	i	CCOc1cc(C2C(C(=O)OC3CCCCC3)=C(C)NC3=C2C(=O)CC(C)(C)C3)ccc1OC(C)=O (centres undefined)
33	i	COc1ccc(C2C(C#N)=C(C(C)(C)C)Nc3ncnn32)cc1 (centres undefined)
34	26.7	CCOc1ccccc1C(=O)Nc1c(-c2cccs2)nc2cc(C)ccn12
35	i	C=CCc1cc(/C=C2\C(=O)NC(=O)N(c3ccc(CC)cc3)C2=O)cc(OC)c1OCC(=O)O
36	2.2	CCOC(=O)C1=C(N)OC2=C(C(=O)CC(C)(C)C2)C1c1ccc(OC)c(OC)c1 (centres undefined)
37	6.2	CSc1nc(OCC(=O)c2ccccc2)c2c3c(sc2n1)CCCC3
38	17.7	CCC1SC2=NC(C)=C(C(=O)OCC(C)C)C(c3cccc([N+](=O)[O-])c3)N2C1=O (centres undefined)
39	i	CCCN1CCN(CCCNC(=O)c2cn(CC(C)C)c(=O)c3c2c2ccccc2n3C)CC1
40	i	COc1ccc(C2C(C(=O)Nc3nc4ccc(OC)cc4s3)c3ccccc3C(=O)N2C2CCCCC2)cc1 (centres undefined)
41	i	COC(=O)C1=C(N)OC2=C(C(=O)CC(C)(C)C2)C1c1cc(OC)ccc1OC (centres undefined)
42	i	CCOc1ccc2nc(NC(=O)C3CCC(CNS(=O)(=O)c4ccc(Br)s4)CC3)sc2c1 (centres undefined)
43	20.9	COc1ccccc1C1Nc2c(C(=O)O)cccc2C2C3CCC(C3)C12 (centres undefined)
44	i	COc1ccc(S(=O)(=O)NC(CC(=O)NCCN2CCOCC2)C(C)C)cc1 (centres undefined)
45	i	COc1ccc(OC)c(CN2CCCC(C(=O)N3CCCCC3)C2)c1 (centres undefined)
46	i	N#CC1=C(SCC(=O)Nc2cccc3cccnc23)N=C(N)C(c2nc(-c3ccccc3)cs2)C12CCCCC2 (centres undefined)
47	0.5	O=C(Nc1nccs1)C1CCC(CNS(=O)(=O)c2ccc(Br)s2)CC1 (centres undefined)
48	i	CCCc1ccc(Oc2c(C(F)(F)F)oc3c(C)c(OCC)ccc3c2=O)cc1
49	i	COC(=O)c1sc2nc(-c3ccccc3)cc(C(F)(F)F)c2c1N
50	i	COc1ccc(C2CC(C(F)(F)F)n3nc(C(=O)N(C)CCC#N)cc3N2)cc1 (centres undefined)
51	13.9	CC(C)Cc1ccc(-c2csc(NC(=O)C3C4CCC(C4)C3C(=O)O)n2)cc1 (centres undefined)
52	i	O=c1c2sccc2n(Cc2cc(=O)n3cc(Cl)ccc3n2)c(=O)n1-c1cccc(C(F)(F)F)c1
53	i	COc1ccc(C2(CNC(=O)Cc3ccc(OC)c(OC)c3)CCOCC2)cc1
54	i	CC1=CC(C)C2(COC(=O)Nc3ccccc3)COC(c3cccnc3)C1C2C (centres undefined)
55	i	COC(=O)c1c(NC(=O)C(C(C)C)N2C(=O)c3ccccc3C2=O)sc2c1CCC(C)C2 (centres undefined)
56	4.6	COc1ccc(S(=O)(=O)NCC2CCC(C(=O)NCCCN3CCCC3=O)CC2)cc1 (centres undefined)

# Other records:
item	FPR binding	Structure
57	i	Cc1csc(NC(=O)C2CCC(CNS(=O)(=O)c3ccc(Br)s3)CC2)n1 (centres undefined)
58	14.4	COc1cc2c(C(=O)N(C)c3ccc(C(C)C)cc3)cn(CC(C)C)c(=O)c2cc1OC
59	i	CSc1nc(OCC(=O)c2ccccc2)c2c3c(sc2n1)CC(C)CC3 (centres undefined)
60	i	CC1(C)CC(=O)C=C(NC2CC(C)(C)NC(C)(C)C2)C1
61	i	O=C(CSc1nc2ccccc2c(=O)n1CC1CCC(C(=O)NCc2ccco2)CC1)NC1CCCCC1 (centres undefined)
62	28.5	COc1ccc(-c2nnc3n2C2(CCCCC2)Cc2ccccc2-3)cc1
63	30.8	CCCC1=C(C(=O)OCC)C(c2ccc([N+](=O)[O-])cc2)NC(=O)N1 (centres undefined)
64	i	CC(C)Cn1cc(C(=O)NCCN(C)C)c2c3ccccc3n(C)c2c1=O
65	i	CCOC(=O)c1cc2c(=O)n3ccccc3nc2n(CC(C)C)c1=NC(=O)c1ccc(OC)c(OC)c1
66	i	CCCCN(C(=O)Nc1cccc2ccccc12)C1CCS(=O)(=O)C1 (centres undefined)
67	9.1	CCOC(=O)c1cc2c(=O)n3ccccc3nc2n(CC(C)C)c1=NC(=O)c1ccccc1F
68	i	CN1C(=O)NC(c2ccccc2)C2=C1CC(C)(C)CC2=O (centres undefined)
69	0.5	CCCCn1c(SCC(=O)NCc2ccc(C)cc2)nc2ccsc2c1=O
70	i	O=S(=O)(NC1CCCCC1Sc1ccccn1)c1ccccc1 (centres undefined)
71	i	COC(=O)C1=C(N)OC2=C(C(=O)CC(C)(C)C2)C1c1cccc(F)c1 (centres undefined)
72	i	Cc1cccc(CCNC(=O)C2CCC(CNS(=O)(=O)c3ccccc3)CC2)c1 (centres undefined)
73	i	COc1ccc(CCNC(=O)CSc2nc3ccsc3c(=O)n2CCCCCC(=O)O)cc1OC
74	i	CC(=O)N1CCCc2cc(S(=O)(=O)NC(C(=O)Nc3cccc(Cl)c3)C(C)C)ccc21 (centres undefined)
75	i	CCOc1ccccc1C1C(C(=O)OCCSCC)=C(C)NC2=C1C(=O)C(C(=O)OC)C(C)C2 (centres undefined)
76	28.2	CC1=C(C)CC(C(=O)Nc2sc3c(c2C#N)CCC3)C(C(=O)O)C1 (centres undefined)
77	i	CCCCCCOC(=O)C1=C(C)NC(=O)NC1c1ccc(OC)cc1 (centres undefined)
78	3.8	COc1ccc([N+](=O)[O-])cc1Nc1c2c(nc3cc(Cl)ccc13)CCCC2
79	4.3	CCOc1ccc(NC(=O)C2CCC(CNS(=O)(=O)c3cccs3)CC2)cc1 (centres undefined)
80	6.0	CCCCOc1ccc(C(=O)NCC2(c3ccc(OC)cc3)CCOCC2)cc1
81	i	O=C(CSc1nc2ccccc2c(=O)n1CC1CCC(C(=O)NCC2CCCO2)CC1)NCc1ccco1 (centres undefined)
82	i	O=c1[nH]c(=O)c2sc3nc(-c4ccc5c(c4)OCCO5)cc(C(F)(F)F)c3c2[nH]1
83	42.8	CC(C)C12CN3CC(C(C)C)(CN(C1)C3C(O)C(O)C(O)C(O)CO)C2=O (centres undefined)
84	i	COC(=O)C1=C(N)OC2=C(C(=O)CC(C)(C)C2)C1c1cccc(OC)c1 (centres undefined)
85	i	O=C(O)C1Nc2ccc(Oc3ccccc3)cc2C2C=CCC12 (centres undefined)
86	i	CCCCn1c(CN2CCN(c3ccc(OC)cc3)CC2)nc2c1c(=O)n(C)c(=O)n2C
87	i	O=C(O)c1ccc2c(c1)C(=O)N(c1ccc(N3C(=O)C4C5CCC(C5)C4C3=O)cc1)C2=O (centres undefined)
88	5.4	COc1cc(C2C3=C(CC(C)(C)CC3=O)OC3=C2C(=O)CC(C)(C)C3)ccc1OC(=O)N(C)C
89	12.3	CC(C)(C)c1cc(CN(CCO)CCO)cc(C(C)(C)C)c1O
90	2.5	COC(=O)C1C(=O)C2=C(CC1C)NC(C)=C(C(=O)OC(C)C)C2c1ccccc1OC(C)C (centres undefined)
91	i	COCCCNC(=O)Cn1cnc2sc(C)c(S(=O)(=O)N3CCC(C)CC3)c2c1=O
92	i	Cc1cccc(Oc2c(C(F)(F)F)oc3c(CN4CCCCC4C)c(O)ccc3c2=O)c1 (centres undefined)
93	17.8	CC(C)C(C(=O)OCC(=O)c1ccccc1)N1C(=O)C2C3CCC(C3)C2C1=O (centres undefined)
94	i	O=C(Nc1ccc(Cl)cc1C(F)(F)F)c1cc(S(=O)(=O)NCc2ccc3c(c2)OCO3)ccc1F
95	i	CC(=O)N1CCc2cc(S(=O)(=O)NC(C(=O)NCc3ccc(F)cc3)C(C)C)ccc21 (centres undefined)
96	i	CCOC(=O)C(C)Oc1cc(OC(C)C(=O)OCC)c2c3c(c(=O)oc2c1)CCCC3 (centres undefined)
97	i	CCOc1ccccc1C1C2=C(CC(C)(C)CC2=O)Nc2nnnn21 (centres undefined)
98	i	Cc1ccc(S(=O)(=O)NCC2CCC(C(=O)NC3CCCCCC3)CC2)cc1 (centres undefined)
99	i	CCOc1cc(C2C(C(=O)OC3CCCCC3)=C(C)NC3=C2C(=O)CC(c2ccc(Cl)cc2)C3)ccc1O (centres undefined)

# Compounds shown so far that have two or more sulfur atoms, in the order listed:
item	FPR binding	Structure
26	0.3	CC1CCN(C(=O)C2CCC(CNS(=O)(=O)c3ccc(Br)s3)CC2)CC1 (centres undefined)
37	6.2	CSc1nc(OCC(=O)c2ccccc2)c2c3c(sc2n1)CCCC3
42	i	CCOc1ccc2nc(NC(=O)C3CCC(CNS(=O)(=O)c4ccc(Br)s4)CC3)sc2c1 (centres undefined)
46	i	N#CC1=C(SCC(=O)Nc2cccc3cccnc23)N=C(N)C(c2nc(-c3ccccc3)cs2)C12CCCCC2 (centres undefined)
47	0.5	O=C(Nc1nccs1)C1CCC(CNS(=O)(=O)c2ccc(Br)s2)CC1 (centres undefined)
57	i	Cc1csc(NC(=O)C2CCC(CNS(=O)(=O)c3ccc(Br)s3)CC2)n1 (centres undefined)
59	i	CSc1nc(OCC(=O)c2ccccc2)c2c3c(sc2n1)CC(C)CC3 (centres undefined)
69	0.5	CCCCn1c(SCC(=O)NCc2ccc(C)cc2)nc2ccsc2c1=O
70	i	O=S(=O)(NC1CCCCC1Sc1ccccn1)c1ccccc1 (centres undefined)
73	i	COc1ccc(CCNC(=O)CSc2nc3ccsc3c(=O)n2CCCCCC(=O)O)cc1OC
79	4.3	CCOc1ccc(NC(=O)C2CCC(CNS(=O)(=O)c3cccs3)CC2)cc1 (centres undefined)
91	i	COCCCNC(=O)Cn1cnc2sc(C)c(S(=O)(=O)N3CCC(C)CC3)c2c1=O

# 3 compounds from above, arranged by the number in FPR binding, low to high:
item	FPR binding	Structure
90	2.5	COC(=O)C1C(=O)C2=C(CC1C)NC(C)=C(C(=O)OC(C)C)C2c1ccccc1OC(C)C (centres undefined)
89	12.3	CC(C)(C)c1cc(CN(CCO)CCO)cc(C(C)(C)C)c1O
93	17.8	CC(C)C(C(=O)OCC(=O)c1ccccc1)N1C(=O)C2C3CCC(C3)C2C1=O (centres undefined)
